HPGD block – inhibitors of human 15-hydroxyprostaglandin dehydrogenase (HPGD). P15428. purified HPGD, NADH fluorescence kinetic, PGE2 substrate. Potency, µM, for inactives: at the highest dose activity change, negative = inhibition, usual class: inhibitors. 4.3% of 150,000 active; active = well fitted inhibition curve with a large enough effect (not every such curve was filed as active); inconclusive = small, poorly fitted or top-dose-only effect, or another doubt; inactive = no such curve, though single readings can be large or run the other way;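 further: top concentration of the series not given in the record; plate controls included wells without enzyme; inactives centre near -10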
Target sequence (P15428 whole entry, looked up): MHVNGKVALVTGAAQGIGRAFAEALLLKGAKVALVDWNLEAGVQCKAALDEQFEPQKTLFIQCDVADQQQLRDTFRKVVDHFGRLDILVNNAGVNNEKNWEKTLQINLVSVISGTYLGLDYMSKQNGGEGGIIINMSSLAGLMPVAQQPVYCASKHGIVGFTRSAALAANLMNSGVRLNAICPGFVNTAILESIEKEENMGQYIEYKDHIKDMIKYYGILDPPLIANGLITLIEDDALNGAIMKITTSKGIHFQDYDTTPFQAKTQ
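20 nM HPGD preincubated 15 min at room temperature with compound in 50 mM Tris-HCl pH 8, 0.01% Tween 20. Started with 1 mM NAD+ and 30 uM prostaglandin E2; NADH fluorescence (360/450 nm) read 5 times over 30-s intervals, last minus first.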
* hit, by the source's call; u = inconclusive; & = joins results of further samples. On the % scale 0 is the no-effect control and ±100 the full control effect; potency means the concentration at half of the fitted maximal effect. This is a subset; count on the stated rates, not on these rows.

molecule	HPGD block
CCc1ccc(-c2nc(NC(=O)c3ccc(OCC(=O)Nc4ccc(F)cc4)c(OC)c3)sc2C)cc1	u
CN(C)c1ccnc(-c2cccc(NS(C)(=O)=O)c2)n1	-17.7%
CCN1CCc2nc(N)oc2CC1	-19.8%
CCNc1ncc2nc(C)c(=O)n(Cc3cccc(OC)c3)c2n1	u
CCC(=O)c1ccc(N2CCN(C(=O)Cc3ccccc3)CC2)c(F)c1	-26.6%
Cc1sc2ncnc(SCC(=O)N3c4ccccc4Sc4ccc(Cl)cc43)c2c1C	-6.3%
O=C(Cn1cc(SCc2cccc(Cl)c2)c2ccccc21)N1CCOCC1	-27.6%
CCC(C)NCc1ccc(C(=O)OC)o1 (centres undefined)	3.9%
Cc1ccc(CNC(=O)C(Cc2ccccc2)NS(=O)(=O)c2ccc(Br)s2)cc1 (centres undefined)	-4.2%
CCn1c(CCCc2nc3c([nH]2)c(=O)n(C)c(=O)n3C)nc2c1c(=O)n(C)c(=O)n2C	-5.3%
COc1ccccc1CNC(=O)c1ccc(NS(=O)(=O)c2c(C)noc2C)cc1	-14.6%
CCOc1ccc(CC(=O)OCN2C(=O)c3ccccc3C2=O)cc1	u
O=C(C1CC1c1ccccc1)N1CCOCC1 (centres undefined)	-0.9%
CCOC(=O)CSc1nc2ccccc2n2cnnc12	u
O=C(COc1ccccc1)N1CCN(S(=O)(=O)c2cccs2)CC1	4.1%
COc1cc2[nH]c(=O)n(CCCCCC(=O)NCCCN3CCCC3=O)c(=O)c2cc1OC	u
COc1cccc(-c2noc(C(C)n3nc(C)c([N+](=O)[O-])c3C)n2)c1 (centres undefined)	-8.1%
O=C(O)CCCN1CCCCC1	-5.7%
Cc1ccc(OC(=O)c2cccc(C(=O)Oc3ccc(C)cc3)n2)cc1	-7.8%
CC(Sc1nc(-c2ccccc2)nc2c1COC(C)(C)C2)C(=O)N1CCOCC1 (centres undefined)	-0.5%
Cc1ccc(-n2c(SCC(=O)N3CCCC3)nc3c(c2=O)SCC3)cc1	-11.6%
Cc1cccc(N(CC(=O)NC2CCCCC2)C(=O)c2ccc(C)s2)c1	-10.1%
O=C(CN1CCCCC1)Nc1ccc(NC(=O)c2ccccc2Cl)cc1Cl	u
O=C(Cn1nc(-c2ccc(Cl)cc2)ccc1=O)NCC1CCCO1 (centres undefined)	-5.9%
CCN(Cc1ccccc1)S(=O)(=O)c1ccc(C(=O)Nc2nnc(C3CC3)o2)cc1	-23.9%

molecule	HPGD block
O=C(Nc1ccc2c(c1)OCO2)C1CCN(Cc2cnn(-c3ccccc3)c2-n2cccc2)CC1	-7.1%
CN(CC(=O)NC1CCCc2ccccc21)S(=O)(=O)c1cccs1 (centres undefined)	-3.3%
O=S(=O)(c1cccc(-c2cn3cccnc3n2)c1)N1CCOCC1	u
O=[N+]([O-])c1ccc(NCCCN2CCOCC2)c(Cl)c1	-5.1%
Cc1cc(C(=O)NCCCN2CCCC2=O)cs1	-2.3%
CCSc1cnc(-c2ccccc2)n1CC	-14.4%
O=C(CCCSc1nc2ccccc2[nH]1)N1CCN(c2ccc([N+](=O)[O-])cc2)CC1	-9.5%
CCN(CC(=O)NC1CCS(=O)(=O)C1)c1ccc(S(C)(=O)=O)cc1[N+](=O)[O-] (centres undefined)	-4.6%
CC(C)CCNC(=O)C1CC(c2cccc([N+](=O)[O-])c2)=NO1 (centres undefined)	-5.8%
CCOC(=O)c1nn(-c2ccc(F)cc2)c2nc(Nc3ccccc3)cc(=O)n12	-17.9%
Cc1cc(/C=C/c2ccc3cc(N(C)C)ccc3[n+]2C)c(C)n1-c1ccccc1	-12.8%
O=C(Cc1ccccc1)N1CCCC(c2nc(-c3ccc(S(=O)(=O)N4CCCC4)cc3)no2)C1 (centres undefined)	-3.9%
CC1=CCC2C(=O)N(C(C)c3ccccc3)C(=O)C2C1 (centres undefined)	-2.0%
CCOc1ccc(NC(=O)c2ccccc2NS(C)(=O)=O)cc1	-5.3%
Cn1nnnc1SCCNCc1ccccc1OCc1ccccc1	-1.5%
CN1/C(=C\C(=O)COC(=O)CN2C(=O)C3CC=CCC3C2=O)C(C)(C)c2ccccc21 (centres undefined)	-15.1%
CCc1ccc(NC(=O)CNS(=O)(=O)c2c(C)noc2C)cc1	-9.6%
COC(=O)c1c(NC(=O)CN2CCC(C)CC2)c2c(C)cccc2n1C	-7.5%
Cc1ccc(NC(=S)NC(NC(=O)C(C)(C)C)C(Cl)(Cl)Cl)c(C)c1 (centres undefined)	-7.9%
Nc1cccc(S(=O)(=O)NC2=NCCC2)c1	2.8%
N#C[C@H]1CN[C@H](N)N[C@@H]1N	-4.3%
O=C(O)c1ccc(COc2ccccc2C=C2C(=O)c3ccccc3C2=O)cc1	10µM*
CC(C)(C#N)N([O-])C=C[N+](=O)C(C)(C)C#N	-11.8%
Cc1ccc(C(=O)CSc2nc(C)cc(SCc3nnc(-c4ccccc4)o3)n2)cc1	-13.8%
COc1cc(C)c(C(=O)Oc2cc(C)c(C(=O)O)c(O)c2C)c(OC)c1C	u

molecule	HPGD block
CCC(C)(C)NC(=O)Cc1ccc(C)cc1	14.1µM*
COc1ccc(P(=O)(COc2ccc([N+](=O)[O-])cc2)c2ccc(OC)cc2)cc1	-5.3%
CN=CC1=C(O)CC(C)(C)CC1=O	-6.5%
O=C(COc1ccc2c(c1)CCC2)N1CCN(c2cccc(C(F)(F)F)c2)CC1	-3.2%
Cc1ccc(N2C(=O)[C@@H]3[C@H](C2=O)C2CCCN2[C@@H]3C(=O)c2ccccc2)cc1 (some centres undefined)	u
COc1cc(NC(=O)c2c3c(nc4ccccc24)CCC3)cc(OC)c1	1.8%
CC1(C)Cc2c(sc3nc4n(c(=O)c23)CCC4)CO1	-17.3%
CCC(C)NC(=O)CSc1nnc(-c2cc(-c3ccc(C)cc3)nc3ccccc23)n1N (centres undefined)	u
CCc1cc2cc(C)ccc2nc1SCC(=O)N1CCN(C(=O)c2ccco2)CC1	-19.4%
C=CCOc1ccc(CNCCO)cc1OCC	-1.3%
CC1C(=O)CCCCCCCCCC2C1(N1CCOCC1)CS2(=O)=O (centres undefined)	-2.0%
COc1cccc(OCCOCCNCCO)c1	-12.4%
CC1=CC(=O)C(C(C)C)=C/C1=N/OC(=O)c1cccc([N+](=O)[O-])c1	u
COc1ccccc1C1C2=C(N=C3SCC(=O)N31)c1ccccc1CC2 (centres undefined)	-20.3%
O=C1CC(c2ccsc2)c2cc3c(cc2N1)OCCO3 (centres undefined)	-9.4%
O=C(COC(=O)CCSc1ccccc1Cl)Nc1ccc(F)cc1F	-1.5%
Cc1cc(C)c(C)c(S(=O)(=O)N2CCN(CC(=O)c3c(N)n(Cc4ccccc4)c(=O)n(C)c3=O)CC2)c1C	-9.7%
Cc1ccccc1OCC(=O)NC(=S)Nc1ccc(N2CCOCC2)c(Cl)c1	-25.6%
COc1ccccc1OCc1ccc(C(=O)NN)cc1	-1.3%
CCC1CCCCN1C(=O)Cn1c(=O)n(CCC(=O)NCc2ccco2)c(=O)c2sccc21 (centres undefined)	-1.5%
CCN(CC)CCCNC(=O)c1nn(-c2ccc(OC)cc2OC)c(=O)c2ccccc12	-3.7%
CC(C)(C)n1ncc2c(=O)n(CC(=O)NCCc3ccccc3)cnc21	-21.0%
Cc1ccc2cc(C#N)c(SCC(=O)NCC3CCCO3)nc2c1 (centres undefined)	-23.1%
Cc1cnc(C(=O)OCC(=O)Nc2cc(Cl)cc(Cl)c2)cn1	-7.5%
O=C(Oc1ccccc1Cl)c1ccccc1P(=O)(O)O	-3.3%

mol,HPGD block
Cc1ccc(C)c(NC(=S)N2CCCCCC2)c1,3.2%
C=C(C)CNC(=S)NNC(=O)c1ccc(Br)cc1,-12.8%
Cc1ccc(NC(=O)CC2S/C(=N/c3nccs3)N(C)C2=O)c(C)c1 (centres undefined),-12.2%
COc1ccc(/C=C2\SC(=O)N(CCC(=O)Nc3ccc(S(=O)(=O)Nc4nccs4)cc3)C2=O)cc1,-6.8%
CC1(C)C(=O)NC2=C1C(=O)C(=O)c1ccccc12,-10.7%
COC(=O)c1ccccc1N(C)S(C)(=O)=O,-4.5%
CS(=O)(=O)N(CC(=O)N1CCN(c2cccc(Cl)c2)CC1)c1cccc(F)c1,-7.5%
O=P(OC1CCCCC1)(OC1CCCCC1)C(O)c1ccc(Cl)cc1Cl (centres undefined),-7.2%
O=C(Nc1nc2c(s1)CN(Cc1ccccc1)CC2)c1cccc(S(=O)(=O)N2CCc3ccccc32)c1,-19.9%
O=C(CSc1nnnn1-c1ccc(Cl)cc1)N1CCc2ccccc2C1,-15.1%
Cc1ccc(C(C2=C(O)CC(C)(C)CC2=O)C2C(=O)CC(C)(C)CC2=O)o1 (centres undefined),3.55µM*
O=C(O)c1ccc(S(=O)(=O)c2ccc3c(c2)C(=O)N(Cc2ccco2)C3=O)cc1,-19.1%
Cc1ccc(CSc2ccc3nnc(-c4cccnc4)n3n2)cc1,-17.9%
COc1ccc(N2C(=O)CSC23CCCCC3)cc1,-15.7%
Cc1cc(NC(=O)CSc2n[nH]c(CC(C)C)n2)no1,-21.1%
O=C1c2ccccc2C(O)N1Cc1ccco1 (centres undefined),-16.1%
CC(=O)c1sc2nc(-c3cccs3)cc(C(F)(F)F)c2c1N,-29.0%
Cc1cccc(NC(=O)C2CCN(S(=O)(=O)c3c(C)nn(C)c3C)CC2)n1,-5.5%
CSc1cccc(NC(=O)CCCOc2ccc(Cl)cc2C)c1,-9.7%
CCN1CCN(S(=O)(=O)c2cc(OCC(=O)NC3CCCCC3)c(C)cc2Cl)CC1,-6.3%
C[C@H](O)[C@@H]1C(=O)N2C(C(=O)O)=C(SCCN=CN)C[C@@H]12,-9.9%
O=C(CSc1nccc(=O)[nH]1)Nc1ccc(F)c(Cl)c1,-25.4%
CC(C)NC[C@@H](O)COc1cccc2[nH]ccc12,-6.9%&-9.3%
CCc1cccc(C)c1NC(=O)CSc1nnc(-c2ccco2)n1N,-10.6%
COc1ccc(NC(=O)CN(c2cc(C)cc(C)c2)S(=O)(=O)c2c(C)noc2C)cc1,-9.5%
CC(C)CNC(=O)c1ccccc1NC(=O)c1ccccc1N(C)S(C)(=O)=O,-17.4%
CCOC(=O)c1c(C2CC2)csc1NC(C)=O,-11.1%
CC(C)Cn1c(NCCO)nc2ccccc21,1.5%
CC(C)Cc1nc2oc3c(N4CCN(CCO)CC4)ncnc3c2c2c1CCCC2,-11.1%
O=C(CSc1nc2ccccc2s1)NC1CCCc2ccccc21 (centres undefined),11.2µM*

Some of these compounds in order of their number in HPGD block, ascending:
mol,HPGD block
Cc1ccc(C(C2=C(O)CC(C)(C)CC2=O)C2C(=O)CC(C)(C)CC2=O)o1 (centres undefined),3.55µM*
O=C(CSc1nc2ccccc2s1)NC1CCCc2ccccc21 (centres undefined),11.2µM*
CCC(C)(C)NC(=O)Cc1ccc(C)cc1,14.1µM*

As entered above.
HPGD block with `CCN1CCN(S(=O)(=O)c2cc(OCC(=O)NC3CCCCC3)c(C)cc2Cl)CC1` stands at -6.3%
HPGD block with `Cc1ccc(NC(=O)CC2S/C(=N/c3nccs3)N(C)C2=O)c(C)c1` (centres undefined) stands at -12.2%
HPGD block with `Cc1ccc(C)c(NC(=S)N2CCCCCC2)c1` stands at 3.2%
HPGD block with `O=C(Nc1nc2c(s1)CN(Cc1ccccc1)CC2)c1cccc(S(=O)(=O)N2CCc3ccccc32)c1` stands at -19.9%
HPGD block with `CC(C)Cn1c(NCCO)nc2ccccc21` stands at 1.5%
HPGD block with `CSc1cccc(NC(=O)CCCOc2ccc(Cl)cc2C)c1` stands at -9.7%
HPGD block with `COC(=O)c1ccccc1N(C)S(C)(=O)=O` stands at -4.5%

(more compounds)
mol,HPGD block
CC(=O)OCC[N+](C)(C)C,-8.0%&-6.1%&-10.8%
O=C1c2ccccc2C(=O)N1CCCSc1nc2ccccc2o1,20µM*
Cc1ccc2nc(-c3cccc(NC(=O)c4ccco4)c3)[nH]c2c1,-20.7%
CCOC(=O)C1C2C=CC3(CN(CCc4ccccc4)C(=O)C13)O2 (centres undefined),3.6%
COCCCNC(=O)CN(c1cc(OC)ccc1OC)S(=O)(=O)c1ccccc1,6.0%
Cc1cc(C(=O)OCC(=O)NC2CCCCC2)c(C)o1,-9.3%
Cc1cccc(OCCCN2CCCCCC2)c1,1.5%
COCc1cc(C)nc(N)c1C#N,u
COc1cc(/C=N/Nc2cc(C)nc(NS(=O)(=O)c3ccc(C)cc3)n2)ccc1O,-21.0%
O=C(CN1C(=O)NC2(CCCCC2)C1=O)Nc1ccccc1Cl,0.2%
Cc1cc(N2C3CCC2CC(O)(c2ccc(F)cc2)C3)nc(-c2ccccc2)n1 (centres undefined),u
CC(=O)c1cc2c(cc1N)OCO2,-10.7%
COc1cccc(C2C3=C(N=c4s/c(=C\c5cccc(O)c5)c(=O)n42)c2ccccc2CC3)c1OC (centres undefined),-13.8%
N=c1n(CCN2CCOCC2)c2ccccc2n1Cc1ccccc1Br,0.8%
Cc1nc(Nc2nc(CSc3ccc(Cl)cc3)cc(=O)[nH]2)nc2ccccc12,-7.6%
O=C(Nc1nc2c(c(=O)[nH]1)CCCC2)C1CC1,-15.2%
COc1ccc(Oc2ncc(CN3CCN(c4ccccc4)CC3)s2)cc1,-16.8%
CCC(N1CCOC1=O)S(=O)(=O)c1ccc(C)cc1 (centres undefined),-3.1%
CS(=O)(=O)c1cnc(-c2ccccc2)nc1Oc1ccc(F)cc1,-10.5%
COc1cccc(/C=N/NC(=O)c2ccccc2N(Cc2ccccc2)S(=O)(=O)c2ccccc2)c1OC,-23.3%
CC(C)(C)NC(=O)CN1CCC(O)(c2ccc3c(c2)OCO3)CC1,-4.0%
O=C(Cc1ccccc1)NN1C(=O)C2C(C1=O)C1C=CC2C12CC2 (centres undefined),-3.2%
COc1cc(C2C(C(=O)c3ccco3)=C(O)C(=O)N2CCc2ccccc2)ccc1O (centres undefined),-12.3%
COc1cccc2c(=O)n(CC(=O)NC3CCCC3)ccc12,-17.6%

Source: PubChem (National Center for Advancing Translational Sciences (NCATS))
